# MenB inh: blocks the Mycobacterium tuberculosis MenB enzyme | 100,000 compounds, 0.43% hits | P9WNP5 | inhibition, %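 (about 12 µg/mL by stock and volumes)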 | MenB enzyme assay, absorbance read-out; some hits fall short of the stated cut;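 active means mean of two replicates above 30%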;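 further: 0% = no compound and 100% = wells with inactive enzyme; the first replicate is given; strong numbers were not always called active; inactives centre near -10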
# MbtI inh: inhibitors of Mycobacterium tuberculosis siderophore enzyme MbtI; purified MbtI enzyme, fluorescence intensity read-out; 100,000 compounds, 0.89% hits; AID 493033; P9WFX0; inhibition, %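 (about 17 µg/mL by stock and volumes)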;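 active means above 50% in both replicates, above 80% if mildly self-fluorescent; inactive means the rest, strongly fluorescent compounds included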;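 further: 0% = mean of negative and 100% = mean of positive controls; one replicate is shown; some compounds called inactive have numbers as strong as hits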
# Target sequence (P9WFX0 whole entry, looked up): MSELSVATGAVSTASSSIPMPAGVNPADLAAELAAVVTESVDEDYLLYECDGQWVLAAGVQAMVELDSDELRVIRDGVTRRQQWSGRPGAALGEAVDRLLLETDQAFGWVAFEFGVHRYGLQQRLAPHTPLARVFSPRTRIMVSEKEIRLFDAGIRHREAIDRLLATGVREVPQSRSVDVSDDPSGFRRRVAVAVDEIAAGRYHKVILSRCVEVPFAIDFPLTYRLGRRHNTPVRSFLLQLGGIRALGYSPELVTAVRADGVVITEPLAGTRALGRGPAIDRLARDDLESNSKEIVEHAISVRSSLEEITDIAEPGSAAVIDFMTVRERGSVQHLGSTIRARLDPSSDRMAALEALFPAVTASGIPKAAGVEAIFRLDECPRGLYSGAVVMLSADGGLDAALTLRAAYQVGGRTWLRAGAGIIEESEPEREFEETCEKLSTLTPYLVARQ
# Polio RdRp inh: poliovirus RNA polymerase inhibition | P03300 | poliovirus polymerase elongation, fluorescence polarization; active compounds read low | % elongation, % (compound at 16.7 µg/mL) | 150,000 compounds, 0.66% hits; in the data active means % elongation below about 90%; further: some results filed as inactive read as strong as hits
# Target sequence (P03300 1749-2209 limits assumed): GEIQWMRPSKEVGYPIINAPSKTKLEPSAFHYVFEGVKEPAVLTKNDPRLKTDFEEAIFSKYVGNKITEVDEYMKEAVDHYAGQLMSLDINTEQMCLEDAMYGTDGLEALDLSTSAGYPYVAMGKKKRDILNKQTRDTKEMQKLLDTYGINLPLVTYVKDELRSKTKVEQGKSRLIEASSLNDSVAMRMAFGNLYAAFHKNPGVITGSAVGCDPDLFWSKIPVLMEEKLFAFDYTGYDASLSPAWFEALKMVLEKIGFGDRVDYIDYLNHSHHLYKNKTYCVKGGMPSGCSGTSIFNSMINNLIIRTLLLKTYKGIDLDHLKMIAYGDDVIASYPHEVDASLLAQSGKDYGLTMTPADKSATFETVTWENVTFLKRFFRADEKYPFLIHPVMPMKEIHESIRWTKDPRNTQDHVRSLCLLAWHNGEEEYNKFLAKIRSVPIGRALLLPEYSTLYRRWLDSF
# Polio RdRp inh intensity: recorded beside Polio RdRp inh, whose call it bears; % elongation; measured here: total intensity read-out; formula for this scale not given here;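 total fluorescence in place of polarization; lower means less elongation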
# Numbers without * were called inactive; i = inactive; nt = not tested or not shown; & = joins results of further samples. Rows were taken by chance; overall some 1.8% were active at least once.
SMILES,MenB inh,MbtI inh,Polio RdRp inh,Polio RdRp inh intensity
COC(=O)Nc1c(C)cc(C)cc1C,-26,nt,105,101
CCc1nnc(NC(=O)C2c3ccccc3C(=O)N(C)C2c2cccs2)s1 (configuration not stated),-17,-7,103,101
Cc1ccccc1NS(=O)(=O)c1ccc2[nH]cc(C(=O)NCCCN3CCOCC3)c(=O)c2c1,-1,-227,99,100
CCCc1nc2c(sc(=S)n2-c2ccccc2)c(=O)[nH]1,-5,nt,115,117
CCOC(=O)c1noc(NC(=O)Cc2ccccc2OC)c1-c1ccccc1,-34,-1,104,107
CCOc1cc2c(cc1CNC(=O)c1cccnc1)OC(C)C2 (configuration not stated),-4,4,106,109
Cc1ccc(-c2nnc(SC(C)c3ccccc3)n2N)cc1 (configuration not stated),-12,10,101,107
O=C(Nc1cccnc1)c1ccccc1Oc1ccccc1,-51,22,102,103
CC(C)CCNC(=O)C1CCN(c2nc3ccccc3o2)CC1,-11,-13,102,105
Cc1noc(C)c1COC(=O)c1cccc(S(=O)(=O)N2c3ccccc3CC2C)c1 (configuration not stated),-51,-3,102,101
O=C(NCCCO)c1nc2ccccc2s1,-4,-2,99,104
C/C(=N\NC(=O)c1ccccn1)c1ccc(OC(F)F)cc1OC(F)F,-67,5,105,111
CC(C)(C)C(=O)Oc1ccc2cc(-c3ccc4ccccc4n3)c(=O)oc2c1,9,-55,102,101
CC1CC(C)CN(S(=O)(=O)c2ccc(F)c(C(=O)NCc3ccccc3)c2)C1 (configuration not stated),-9,-14,101,106
CCOC(=O)c1c(-c2ccccc2)csc1NC(=O)C(F)(F)F,nt,2,104,100
Cc1noc(C)c1NC(=O)NC1CCCc2ccccc21 (configuration not stated),-7,-6,102,94
COC(=O)Cn1c(=NC(=O)c2ccc(S(=O)(=O)N3CCCC3)cc2)sc2cc(NC(C)=O)ccc21,-18,-30,100,107
COC(=O)Cn1c(Cl)nc2c1c(=O)n(C)c(=O)n2C,-5,-18,104,105
Cc1ccc(C(=O)Oc2cc(C)cc(OC(=O)c3ccc(C)cc3)c2)cc1,-17,-5,103,102
FC(F)(F)c1cccc(NC(=S)N2CCCC2)c1,2,-9,102,110
Fc1ccc(Cc2nc3ccccc3[nH]2)cc1,5,-6,103,101
COC(=O)c1cc(CSc2nnc(-c3cccs3)n2N)oc1C,-29,-106,104,101
COc1ccc(CC(CC(=O)O)C(=O)Nc2ccccc2)cc1 (configuration not stated),-1,-11,101,95
CN1C(=O)N(C(=O)c2ccccc2)C(=O)C(C)(C2=CCCCC2)C1=O (configuration not stated),-24,-21,99,102
CCC1C(=O)NCCN1C(=O)/C=C/c1ccccc1 (configuration not stated),11,22,102,101
# Following part:
SMILES,MenB inh,MbtI inh,Polio RdRp inh,Polio RdRp inh intensity
NCCc1c[nH]c2ccc(Cl)cc12,-2,17,102,101
Cc1ccccc1C(=O)N1C(=O)c2ccccc2S1(=O)=O,nt,-8,102,105
CC(=O)Nc1cc(C(=O)N2CCc3ccccc3C2)ccc1Sc1ccc(Cl)cc1,-10,2,103,104
Cc1cccc(CNCCc2ccccc2)n1,17,-3,104,106
CC1(C)Cc2cccc(OCC(=O)OCC(=O)N3CCN(c4ccccc4)CC3)c2O1,-10,-2,104,107
O=C1C(=Cc2cn[nH]c2-c2ccc(F)cc2)C(=O)c2ccccc21,-10,nt,103,97
CC1(C)Cc2cccc(Oc3ccc(S(=O)(=O)N4CCCC4)cn3)c2O1,-12,-9,104,107
S=C1NCN(C(Cc2ccccc2)c2ccccc2)CN1 (configuration not stated),-14,32,106,109
COc1ccc(/C=C2/Oc3ccccc3N(CC(=O)O)C2=O)cc1,-25,-29,104,108
Cc1ccc(/C(=C\CN2CCCC2)c2ccccn2)cc1,-5&0,-7&-23,101&102,102&101
C=CCNC(=O)c1ccc2c(c1)N(Cc1ccccc1)C(=O)CS2,7,-1,101,107
Cc1cc(S(=O)(=O)Nc2nc(CN3CCOCC3)nc3sc4c(c23)CCC4)ccc1F,3,-88,110,119
Cn1c(CN2CCOCC2)c(C#N)c2ccccc21,-18,nt,101,108
Cc1ccc2nc(SCC(=O)c3cc4c5c(c3)CC(=O)N5CCC4)[nH]c2c1,-24,-4,109,127
CSc1sc(C#N)c2c1/C(=N/OC(C)=O)CCC2,7,11,101,102
CCOC(=O)/C=C1\SCC(=O)N1CCOC(=O)c1cc2c(C)nn(-c3ccccc3)c2s1,-27,-2,113,139
CCOC(=O)c1cc2occc2n1Cc1c(F)cccc1Cl,-50,3,109,113
COc1ccc(OCc2nc3ccccc3n2CC(C)C)cc1,-33,nt,106,111
CC1(C)Cc2c(C#N)c(NCC3CCCO3)nc(-c3ccccc3)c2CO1 (configuration not stated),7,i,100,102
Cc1ccc(S(=O)(=O)N2CC=C(c3ccc(F)cc3)CC2)cc1,7,-6,103,100
COCCn1c(SCc2ccc(C(=O)OC)o2)nc2ccccc2c1=O,-27,5,102,106
N#CC1=C2C=CC=CN2CC1=O,-65,-1,100,108
O=C(COc1ccccc1Br)NC1CCCC1,-37,-2,100,105
Cc1ccc(CNC(=O)c2ccc(S(=O)(=O)N3CCCC3)cc2)cc1,-8,-7,104,103
O=C(c1cc2nc(-c3ccccc3)cc(-c3ccccc3)n2n1)N1CCC2(CC1)OCCO2,-10,-16,100,106
# Other entries:
SMILES,MenB inh,MbtI inh,Polio RdRp inh,Polio RdRp inh intensity
CC1(C)CC2(CC(C)(C(=O)CSc3nc4ccccc4s3)OC2=O)C(=O)O1 (configuration not stated),-10,2,101,100
CNC(=O)CN(c1ccc2c(c1)OCO2)S(C)(=O)=O,-15,3,101,101
N#CC(C(=O)Cc1cccc2ccccc12)c1nc2ccccc2[nH]1 (configuration not stated),nt,-7,103,109
Cn1cnnc1SCc1cc(=O)c(OCC(=O)N2CCCCC2)co1,-20,2,106,112
COC(CNC(=O)c1c[nH]c2ccc(S(=O)(=O)N(C)c3ccccc3C)cc2c1=O)OC,-15,25,102,102
CCOc1ccccc1NC(=S)N1CCC(NC(=O)c2ccco2)CC1,-32,3,102,106
CNC(=O)O/N=C/c1[nH]ncc1Br,1,-16,101,104
CN(C)C(=O)COc1ncnc2scc(-c3ccccc3)c12,-13,3,106,105
CN1/C(=N\N)c2cccc3cccc1c23,-104,18,112,142
C=CCNC(=O)C1CC(c2ccc(F)cc2)=NO1 (configuration not stated),-1,-9,98,106
N#CCc1ccno1,6,1,nt,nt
Cc1cc(C)cc(NC(=O)Nc2nnc(N3CC(C)CC(C)C3)s2)c1 (configuration not stated),-9,-2,106,102
O=C(NNc1ncccc1-n1cccc1)Nc1ccc(OC(F)(F)F)cc1,2,4,102,102
Cc1ccc(-c2cc(=O)c(=O)[nH][nH]2)cc1,-74,3,103,100
CCc1cc(=O)oc2c(C)c(OC3CCCCC3=O)ccc12 (configuration not stated),-8,-108,101,103
CCn1c2ccccc2c2cc(NC(=O)C(C)N3CC(C)OC(C)C3)ccc21 (configuration not stated),-14,-25,102,106
Cc1ccc2c(c1)CN1CN2Cc2cc(C)ccc21,-85,-3,100,101
CCOc1ccc(C2=CSC3=NCCN23)cc1Cl,12,18,98,101
O=C(COC(=O)C1COc2ccccc2O1)c1ccccc1 (configuration not stated),-25,-4,105,110
Cn1nccc1C(=O)Nc1ccc(Cl)cc1,-15,13,103,101
CN1CCC(OC(c2ccccc2)c2ccccc2)CC1,-1&0,-13&-15,102&98,101&102
O=C(/C=C/c1ccccc1)Nc1cccnc1Oc1ccc(F)cc1,-26,-4,97,100
COCCn1c(=NC(=O)CCOc2ccccc2)sc2cc(OC)ccc21,-5,9,103,102
CC1CCN(CC(=O)Nc2ccc(C(=O)O)cc2)CC1,-10,-2,102,102
O=C1CC(c2ccccc2)C(=O)N1c1cc(Cl)cc(Cl)c1 (configuration not stated),3,-9,103,101
# Following part
SMILES,MenB inh,MbtI inh,Polio RdRp inh,Polio RdRp inh intensity
Cc1oc2ccc(NS(=O)(=O)c3ccccc3)cc2c1C(=O)O,-17,4,102,104
CCN=C1NC(=O)C(CC(=O)Nc2ccc(Oc3ccccc3)cc2)S1 (configuration not stated),-15,-11,109,110
O=c1[nH]c(=S)[nH]c2c1CCCC2,-18,24,nt,nt
CC(=O)Nc1cccc(NC(=O)CSc2ncc(C(=O)Nc3ccccc3)c(=O)n2C)c1,-18,4,101,98
CCc1cc(=O)oc2c3c(ccc12)OCN(Cc1ccccc1)C3,2,116,100,104
FC(F)(F)Oc1ccc(-n2nnnc2SCCN2CCCCC2)cc1,6,-2,104,109
CC(C)CNC(=S)N1CCC(c2nc(-c3ccc(F)cc3)no2)CC1,-41,-2,102,101
O=S(=O)(c1ccc(Cl)cc1)N1CCC(n2cccc2)CC1,-11,-6,106,106
O=C(Cn1cnc2c(oc3ccccc32)c1=O)Oc1ccccc1Cl,-19,12,60*,69*
OC(Cn1ccc2ccccc21)Cn1cnc2ccccc21 (configuration not stated),1,-6,100,104
Cn1c(C(C#N)C(=O)c2ccc(C(C)(C)C)cc2)nc2ccccc21 (configuration not stated),nt,2,99,99
O=C1/C(=C/C2=Cc3ccccc3OC2)SC(=S)N1C1CCS(=O)(=O)C1 (configuration not stated),-37,2,102,186
Cc1ccc(S(=O)(=O)NCCC(=O)Oc2cc3oc(=O)c4c(c3cc2Cl)CCCC4)cc1,-7,nt,94,94
O=c1cc(-c2ccccc2)oc2cc(O)cc(O)c12,-1&1,2&-1,101&99,100&99
CCOc1ccc(CCNC(=O)c2cc3c(C)nc4ccccc4c3o2)cc1OCC,-11,7,99,101
O=C(O)C1CCN(/C=C/C(=O)C(F)(F)F)CC1,1,10,99,103
CC(C)NC(=O)c1ccccc1N,-3,93,107,109
CCN(Cc1nc(-c2ccc(C)cc2)no1)C(=O)NC(C)(C)C,-19,1,100,102
CCn1c(=O)c2ccccc2n(CC(=O)N2CCCCC2C)c1=O (configuration not stated),-14,21,102,108
CC(NC(=O)C1CCCN(C(=O)c2cc3sccc3n2C)C1)c1ccccc1 (configuration not stated),5,6,101,102
Cn1ccnc1Sc1ncnc2sccc12,5,-6,104,108
CC1CNC(=O)NC1=O (configuration not stated),12,8,104,94
Cc1ccc(CC(C#N)C(N)=C(C#N)C#N)cc1 (configuration not stated),-12,-6,102,107
COCCN1Cc2cccc(C(=O)N3CCN(c4cccc(C)c4)C(C)C3)c2C1=O (configuration not stated),1,-6,101,102
CCC(=O)Nc1nc(-c2ccc(C)c(C)c2)cs1,0,2,99,97
# Remaining list, next part:
SMILES,MenB inh,MbtI inh,Polio RdRp inh,Polio RdRp inh intensity
c1ccn2c(c1)nc1nc3nonc3nc12,0,-4,58,152
CC(C)n1c(CCC(=O)O)ccc1-c1ccc(Br)cc1,1,20,102,102
O=C(CSc1nc2cc(Cl)ccc2s1)NC1CCS(=O)(=O)C1 (configuration not stated),-17,-6,102,109
Cc1ccc(CN(C)C(=O)C2CC(=O)N(c3ccc4c(c3)OCCO4)C2)o1 (configuration not stated),-11,18,101,99
O=C(c1ccco1)N1CCCC(C(F)(F)F)C1 (configuration not stated),10,-9,102,105
N#CCCN(C(=O)C12CC3CC(CC(Cl)(C3)C1)C2)c1ccccc1,nt,2,104,111
Cc1ccc(NC(=O)CCc2nnc3ccc(NCCCc4ccccc4)nn23)cc1,-23,-6,104,108
Cc1c(/C=N/N=c2\sc3ccccc3n2C)n(C)n(-c2ccccc2)c1=O,0,8,103,119
O=C(COCc1cc(-c2ccco2)on1)NC1CCCC1,9,-4,101,103
Cc1cccc(N2CCN(C(=O)CSCc3c(C)noc3C)CC2)c1C,-35,5,110,109
CC(OC(=O)c1cccn1C)C(=O)Nc1ccccc1C#N (configuration not stated),3,-21,102,109
Cc1cc(C)c(S(=O)(=O)NCC(=O)N2CCc3ccccc3C2)c(C)c1,-17,23,105,104
N/C(=N\OC(=O)NC1CCCCC1)c1ccc(Cl)cc1,-17,0,99,99
O=C(O)CCC(=O)c1c[nH]c2ccccc12,-11,nt,107,102
